CFTR F508del = compounds raising F508del-CFTR protein level – cell-based, HeLa F508del-CFTR, immunofluorescence, viability, primary screen (AID 1224863) | HeLa F508del-CFTR, immunofluorescence total CFTR, 24 h; by the record results were divided by relative cell number; some inactives read as strong as hits | 0.1% of 10,000 active | calls, or highest fold increase where a dose series was run; in the data nearly all actives have a first-pass fold increase above 1.5; a few of its hits are not listed in these tables;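 further: total CFTR protein by anti-CFTR immunofluorescence in fixed cells; first pass at 25 µM or 10 µg/mL by library and series up to twice that; 1 = untreated cells; first-pass hits also needed half or more of the cells alive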
CFTR F508del fold 25 µM = also measured in CFTR F508del; calls as there; fold increase; measured here: primary screen single dose 25 uM; library dosed in µM
CFTR F508del fold 10 ug/mL = further read-out of CFTR F508del, marked with its call; fold increase; measured here: primary screen 10 ug/mL
CFTR F508del viability 25 µM = second read-out of CFTR F508del, no call of its own (marks repeat the call); viability, %; measured here: primary viability 25 uM; library dosed in µM;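 0% = killed and 100% = untreated cells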
CFTR F508del viability 10 ug/mL = recorded beside CFTR F508del, whose call it bears; viability, %; measured here: primary viability 10 ug/mL;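 0% = killed and 100% = untreated cells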
Starred values were filed as active, the others as inactive; i = inactive; . = not tested or not shown; & = joins results of further samples. The list is partial; rates above refer to the full screens.

SMILES	CFTR F508del	CFTR F508del fold 10 ug/mL	CFTR F508del viability 10 ug/mL	others
Cc1cc(CN(C)S(=O)(=O)N(C)C)no1	i	1.02	103.0
Cc1cc(C(=O)CN2C(=O)NC3(CCCCC3)C2=O)c(C)n1CCC(C)C	i	0.9	82.0
Cc1cc(C(=O)COC(=O)C23CC4CC(CC(Cl)(C4)C2)C3)c(C)n1-c1ccc2c(c1)OCCO2	i	1.05	99.0
CC1(C(=O)NCCC2CCCCC2)CC1(Cl)Cl (centres undefined)	i	0.93	88.0
C=CCn1cnn(CN(C)Cc2ccccc2[N+](=O)[O-])c1=S	i	1.06	92.0
NC1CCc2cc(F)ccc21 (centres undefined)	i	1.06	95.0
O=S(=O)(Cc1ccccc1)NCC1(c2ccccc2)CCC1	i	0.92	77.0
O=C(c1ccc2c(c1)OCCO2)C1CCN(C2CCCCNC2=O)CC1 (centres undefined)	i	1.02	102.0
COc1ccccc1-n1nnnc1SC1CCCc2ccccc21 (centres undefined)	i	0.85	96.0
c1ccc(OCCSc2nc3ccccc3n2-c2ccccc2)cc1	i	1.01	102.0
CC(OC(=O)c1ccc2c(c1)CCC(=O)N2)C(=O)c1ccccc1 (centres undefined)	i	0.92	86.0
CCC(C)CCCCC(=O)NC(CCN)C(=O)NC(C(=O)NC(CCN)C(=O)NC1CCNC(=O)C(C(C)O)NC(=O)C(CCN)NC(=O)C(CCN)NC(=O)C(CC(C)C)NC(=O)C(Cc2ccccc2)NC(=O)C(CCN)NC1=O)C(C)O (centres undefined)	i	.	.	CFTR F508del fold 25 µM=0.95;CFTR F508del viability 25 µM=101.0
CN(Cc1nc2ccccc2s1)C1CCCCC1	i	0.91	88.0
CCN(CC)CCOCCOC(=O)C(CC)(CC)c1ccccc1	i	.	.	CFTR F508del fold 25 µM=1.08;CFTR F508del viability 25 µM=95.0
CC(C)n1ncc2cc(NS(=O)(=O)c3cc(F)cc(F)c3)cnc21	i	0.96	83.0
Cn1cccc1C(=O)CN1CCOc2ccccc21	i	1.07	102.0
CC(O)C1NC(=O)NC1=O (centres undefined)	i	1	99.0
Cc1sc2nc(CSc3nccn3C)nc(N)c2c1C	i	0.98	95.0
CCCCC(CC)COc1ccc(-c2nc(-c3ccc(OC)cc3)nc(-c3ccc(OCC(CC)CCCC)cc3O)n2)c(O)c1 (centres undefined)	i	.	.	CFTR F508del fold 25 µM=0.97;CFTR F508del viability 25 µM=109.0
CN(CCO)c1ccc(C#N)cc1[N+](=O)[O-]	i	1	87.0
Cc1ccc2c(Cl)cc(Cl)c(O)c2n1	i	.	.	CFTR F508del fold 25 µM=0.92;CFTR F508del viability 25 µM=111.0
CC[C@H]1OC(=O)[C@H](C)[C@@H](O[C@H]2C[C@@](C)(OC)[C@@H](O)[C@H](C)O2)[C@H](C)[C@@H](O[C@@H]2OC(C)C[C@H](N(C)C)[C@H]2O)[C@](C)(O)C[C@@H](C)C(=O)[C@H](C)[C@@H](O)[C@]1(C)O (some centres undefined)	i	.	.	CFTR F508del fold 25 µM=1.01;CFTR F508del viability 25 µM=94.0
CN1CCN(S(=O)(=O)c2ccc(Sc3ccc(Br)cc3)nc2)CC1	i	0.92	79.0
NC(=O)N1CCCC(C(=O)NC2CCCCC2)C1 (centres undefined)	i	0.9	95.0
O=S(=O)(c1ccc2c(c1)CCC2)N1CCN(c2ncccn2)CC1	i	0.94	86.0
O=C1CN(C(=O)CCn2nnc3ccccc3c2=O)CCN1	i	0.94	104.0
Cn1c(=O)/c(=C/c2ccc3c(c2)OCCO3)s/c1=C\C(=O)c1ccco1	i	0.97	99.0
CC1=C(C(=O)OC(C)(C)C)C(/C(Cl)=C/c2ccccc2)NC(=O)N1 (centres undefined)	i	0.95	94.0
O=C(Nc1ccc2[nH]c(=O)[nH]c2c1)C1=Cc2ccccc2OC1	i	1.1	96.0
O=[N+]([O-])c1cc(I)ccc1Cl	i	0.96	85.0
CC1CCc2c(sc(NC(=O)CSc3ncnc4sc5c(c34)CCC5)c2C(N)=O)C1 (centres undefined)	i	1.14	104.0
CCN(C1CCS(=O)(=O)C1)S(=O)(=O)CCn1cnc2ccccc21 (centres undefined)	i	1	111.0
O=C(O)c1ccccc1Nc1cccc(C(F)(F)F)c1	i	.	.	CFTR F508del fold 25 µM=0.97&1.01;CFTR F508del viability 25 µM=83.0&87.0
CC1CCC(NC(=O)C2CC(=O)N(C3CCCC3)C2)CC1 (centres undefined)	i	0.98	100.0
CN(C)S(=O)(=O)NCc1ccc(Cn2ccnc2)cc1	i	0.91	97.0
Cc1cc(C(C)(C)CC(C)(C)C)ccc1OCCOCC[N+](C)(C)Cc1ccccc1	i	.	.	CFTR F508del fold 25 µM=0.61;CFTR F508del viability 25 µM=85.0
O=[N+]([O-])c1c(F)cccc1S(=O)(=O)N1CCN(c2ncccn2)CC1	i	0.88	83.0
CN(Cc1ccc(OC(F)F)cc1)c1ccc2nnnn2n1	i	0.99	91.0
COc1ccc(/C=C/c2nc(-c3ccc(F)cc3)cs2)c(OC)c1	i	1.07	105.0
C[N+](C)(C)CCCCCC[N+](C)(C)C	i	.	.	CFTR F508del fold 25 µM=1.1;CFTR F508del viability 25 µM=89.0
O=C1OCCC1Sc1nnc(C2CC2)n1Cc1ccccc1 (centres undefined)	i	0.94	100.0
Cc1ccc(-c2nc(CSc3nnnn3CCc3cccs3)cs2)o1	i	0.89	82.0
CC1(C(=O)NCC2CCCO2)CC1(Cl)Cl (centres undefined)	i	0.93	92.0
CCCCn1c(=O)n(CC(=O)c2[nH]c(C)c(C(=O)OCC)c2C)c(=O)c2c1ncn2Cc1ccco1	i	1.06	88.0
COc1cc(CSc2nncs2)c([N+](=O)[O-])cc1OC(F)F	i	1.08	89.0
O=C(COC(=O)c1ccc2c(c1)CC(c1ccccc1)OC2=O)c1ccccc1 (centres undefined)	i	1.06	96.0
CC(=O)Nc1cc(C)nn1CCC#N	i	1.16	107.0
CN(C)c1nc(N)nc(COC(=O)c2ccc(Br)cc2)n1	i	0.99	114.0
CC1CN(S(=O)(=O)N2CCc3sccc3C2)CC(C)O1 (centres undefined)	i	1.12	109.0
Cc1ccc(S(=O)(=O)NC(C)(C)C)c(Cl)c1	i	0.9	85.0
O=C1OC(c2ccc(O)cc2)(c2ccc(O)cc2)c2ccccc21	i	.	.	CFTR F508del fold 25 µM=0.94;CFTR F508del viability 25 µM=101.0
CC1(C2CC2)NC(=O)N(CC(=O)NC(C2CC2)C2CC2)C1=O (centres undefined)	i	0.93	82.0
O=C(O)c1csc(-c2cc(Br)cs2)n1	i	1.18	98.0
O=C(Nc1ccc(I)cc1Cl)C1CCC1	i	1.02	95.0
COc1ccc(CN(C)Cn2ncc(Cl)c(Cl)c2=O)cc1F	i	1	84.0
CSc1ccc(N2CC(C(=O)NCCCN3CCCC3)CC2=O)cc1 (centres undefined)	i	0.98	102.0
CC(=O)OCC(=O)[C@@]1(O)[C@H](OC(C)=O)CC2C3CCC4=CC(=O)C=C[C@]4(C)[C@@]3(F)[C@@H](O)C[C@@]21C (some centres undefined)	i	.	.	CFTR F508del fold 25 µM=1.19;CFTR F508del viability 25 µM=91.0
CCN(CC)CC#CCOC(=O)C(O)(c1ccccc1)C1CCCCC1 (centres undefined)	i	.	.	CFTR F508del fold 25 µM=1.06&0.92;CFTR F508del viability 25 µM=94.0&94.0
O=S(=O)(c1ccc2c(c1)CCCC2)N1CCN(c2nccs2)CC1	i	0.87	93.0
O=S(=O)(Nc1cccc(S(=O)(=O)C2CCCC2)c1)c1cc(Cl)ccc1Cl	i	1.07	94.0

The final 2 compounds of the section before are carried over, then new ones follow.
SMILES	CFTR F508del	CFTR F508del fold 10 ug/mL	CFTR F508del viability 10 ug/mL	others
O=S(=O)(c1ccc2c(c1)CCCC2)N1CCN(c2nccs2)CC1	i	0.87	93.0
O=S(=O)(Nc1cccc(S(=O)(=O)C2CCCC2)c1)c1cc(Cl)ccc1Cl	i	1.07	94.0
Cc1cccc(N2CCN(CCNS(=O)(=O)N3CCC(C)CC3)CC2)c1	i	0.93	83.0
CC1=C(/C=C/C(C)=C/C=C/C(C)=C/C(=O)Nc2ccc(O)cc2)C(C)(C)CCC1	i	.	.	CFTR F508del fold 25 µM=0.62;CFTR F508del viability 25 µM=47.0
CCc1cc(=O)oc2cc(OCc3cc(=O)n4ccccc4n3)ccc12	i	1.14	97.0
c1c2c(cc3[nH]c(C4CCCCC4)nc13)OCCO2	i	1	68.0
Cc1ccc(Sc2ccc(S(N)(=O)=O)cn2)c(C)c1	i	0.94	84.0
Cc1cc(S(=O)(=O)N2CCCC2c2ccc3c(c2)OCCO3)c(C)s1 (centres undefined)	i	0.81	79.0
Cc1cc(C)n(CC(=O)O)c(=O)n1	i	1.08	96.0
Cn1ccc(S(=O)(=O)N2CCN(S(=O)(=O)c3ccc(F)cc3)CC2)c1	i	1.03	106.0
Cc1nc(N2CCN(S(=O)(=O)N3CC(C)OC(C)C3)CC2)c2c3c(sc2n1)CCCC3 (centres undefined)	i	1.01	96.0
O=[N+]([O-])c1ccccc1CSc1ncccn1	i	1.26	90.0
Cn1c(N)c(C(=O)CN2C(=O)C(=O)N(CCc3cccs3)C2=O)c(=O)n(C)c1=O	i	1.11	96.0
CC(C)N(CCNc1nnc(-c2ccc(F)cc2)c2ccccc12)C(C)C	i	0.96	98.0
CN(Cc1cnc2nc(N)nc(N)c2n1)c1ccc(C(=O)NC(CCC(=O)O)C(=O)O)cc1 (centres undefined)	i	.	.	CFTR F508del fold 25 µM=0.91;CFTR F508del viability 25 µM=71.0
CC1CCCN(S(=O)(=O)c2ccc(Br)cc2Cl)C1 (centres undefined)	i	0.96	82.0
O=c1[nH]c(=O)n(C2CC2)c2nc(C3CC3)nc(SCc3nnsc3Cl)c12	1.14	1.53	91.0
CC(=O)O[C@]1(C(C)=O)CC[C@H]2[C@@H]3C=C(C)C4=CC(=O)CC[C@]4(C)[C@H]3CC[C@@]21C	i	.	.	CFTR F508del fold 25 µM=0.95&0.97;CFTR F508del viability 25 µM=78.0&84.0
O=c1oc2ccccc2n1Cc1nnc(-c2ccc(Br)cc2)o1	i	1.14	91.0
Brc1cccc(OCCSc2nnnn2-c2ccccc2)c1	i	1.01	88.0
CC(C)NS(=O)(=O)c1ccc(NCCO)c([N+](=O)[O-])c1	i	1.07	99.0
O=C1Nc2cc(N3CCCC3)ccc2C1=O	i	1.16	86.0

Continued; it opens with the seven that closed the last part.
SMILES	CFTR F508del	CFTR F508del fold 10 ug/mL	CFTR F508del viability 10 ug/mL	others
CC1CCCN(S(=O)(=O)c2ccc(Br)cc2Cl)C1 (centres undefined)	i	0.96	82.0
O=c1[nH]c(=O)n(C2CC2)c2nc(C3CC3)nc(SCc3nnsc3Cl)c12	1.14	1.53	91.0
CC(=O)O[C@]1(C(C)=O)CC[C@H]2[C@@H]3C=C(C)C4=CC(=O)CC[C@]4(C)[C@H]3CC[C@@]21C	i	.	.	CFTR F508del fold 25 µM=0.95&0.97;CFTR F508del viability 25 µM=78.0&84.0
O=c1oc2ccccc2n1Cc1nnc(-c2ccc(Br)cc2)o1	i	1.14	91.0
Brc1cccc(OCCSc2nnnn2-c2ccccc2)c1	i	1.01	88.0
CC(C)NS(=O)(=O)c1ccc(NCCO)c([N+](=O)[O-])c1	i	1.07	99.0
O=C1Nc2cc(N3CCCC3)ccc2C1=O	i	1.16	86.0
Cc1ccc(C)c(Nc2ncnc3c2oc2ccccc23)c1	i	0.9	75.0
O=C1CC(c2ccccc2)NCCN1 (centres undefined)	i	1.01	95.0
COc1ccc(OC)c(NS(=O)(=O)c2cc(F)cc(F)c2)c1	i	0.95	96.0
O=S(=O)(Nc1ccc(N2CCCS2(=O)=O)cc1)c1ccc(Br)cc1Cl	i	1.03	114.0
CNCCC(Oc1ccc(C(F)(F)F)cc1)c1ccccc1 (centres undefined)	i	.	.	CFTR F508del fold 25 µM=1.15&0.92&0.95;CFTR F508del viability 25 µM=83.0&85.0&92.0
CCOC(=O)c1oc2ccccc2c1COC(=O)c1ccc2c(c1)CCC(=O)N2	i	1	81.0
O=[N+]([O-])c1c(NCc2ccc3c(c2)OCO3)nc2sccn12	i	0.96	85.0
CC1CCCCC1n1c(-c2cccnc2)nn(CN2CCOCC2)c1=S (centres undefined)	i	1.09	94.0
CC1(C(=O)N2CCc3[nH]c4ccccc4c3C2)CC1(Cl)Cl (centres undefined)	i	1.08	95.0
Cc1ccc(OCc2nc(C)no2)c([N+](=O)[O-])n1	i	0.96	100.0
CC(=O)CC(c1ccccc1)c1c(O)c2ccccc2oc1=O (centres undefined)	i	.	.	CFTR F508del fold 25 µM=0.94;CFTR F508del viability 25 µM=102.0
CCN(CC)c1ccc(-c2nnc(SC3CCOC3=O)o2)cc1 (centres undefined)	i	1.07	95.0
N#CCn1c(CN2CCCCCCC2)nc2sc3c(c2c1=O)CCCC3	i	1.04	94.0
O=C(CCc1ccco1)N1CCN(S(=O)(=O)N2CCOCC2)CC1	i	0.92	90.0
OC(CCN1CCCCC1)(c1ccccc1)C1CCCCC1 (centres undefined)	i	.	.	CFTR F508del fold 25 µM=1;CFTR F508del viability 25 µM=75.0
O=C(OCc1cc(=O)n2cc(Br)ccc2n1)c1cc([N+](=O)[O-])ccc1Cl	i	1.45	102.0

Screens: PubChem BioAssay, Southern Research Institute
